From PubChem
Vaccinia inh: blocks a specific stage of Vaccinia orthopoxvirus infection, primary screen, cell-based, single point. Vaccinia-infected cells, mCherry/Venus stage reporter fluorescence; hits give low values; some inactives read as strong as hits. 0.01% of 89,000 active. activity change (mCherry), % (concentration not given with the values);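 active means mCherry past -33% and 40 or more points under the early reporter, replicates agreeing; inconclusive means past -33% without that gap or agreement; tested in A549 cells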;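 further: scaled between vehicle wells and reference inhibitor wells; 23 nL library stock went into each well; one replicate is shown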
Vaccinia inh Venus: recorded beside Vaccinia inh, whose call it bears; activity change (Venus), %; measured here: Venus reporter, other viral stage;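 negative = less Venus signal; first of two replicates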
Starred values were filed as active, the others as inactive; ? = inconclusive; . = not tested or not shown; & = joins results of further samples. These rows are one share of the data. The share of hits here may be higher or lower than overall.

SMILES	Vaccinia inh	Vaccinia inh Venus
C[C@@H]1CN([C@H](C)CO)C(=O)c2cc(N(C)C)ccc2O[C@@H](C)CCCCO[C@@H]1CN(C)S(=O)(=O)c1ccc(F)cc1	-1	0
C[C@@H]1CCCCO[C@H](CN(C)C(=O)Nc2cccc3ccccc23)[C@@H](C)CN([C@H](C)CO)C(=O)c2cc(NC(=O)NC3CCCCC3)ccc2O1	21	14
O=C(C[C@H]1C[C@H]2c3cc(NC(=O)c4cccnc4)ccc3O[C@H]2[C@H](CO)O1)NCc1ccccn1	15	14
COC(=O)[C@@H]1[C@@H](CO)[C@@H]2Cn3c(ccc(-c4ccccc4F)c3=O)[C@@H]2N1Cc1ccncc1	9	16
C[C@@H]1CN([C@H](C)CO)C(=O)c2cccc(NC(=O)C3CCOCC3)c2O[C@@H]1CN(C)Cc1ccc(C(F)(F)F)cc1	12	12
Cc1ccccc1S(=O)(=O)NCC[C@@H]1CC[C@H](NC(=O)C2CCC2)[C@H](CO)O1	-1	-1
CC=Cc1ccc2n(c1=O)C[C@H]1[C@H](CO)[C@@H](C(=O)NC3CCC3)[C@@H]2N1Cc1ccncc1 (mixture of isomers)	5	1
CNC(=O)C[C@@H]1CC[C@@H]2[C@H](COc3ccc(NC(=O)Nc4cccc(C)c4)cc3C(=O)N2C)O1	28	17
O=C(C1=C[C@@H](C2CC2)C[C@@H](OCc2ccc(CO)cc2)O1)N1CCCC1	24	2
CCCNC(=O)N(C)C[C@H]1Oc2ncc(C#C[C@@H](C)O)cc2C(=O)N([C@@H](C)CO)C[C@@H]1C	17	9
C[C@@H]1CN([C@H](C)CO)C(=O)Cc2cc(NC(=O)CCCCCC(=O)Nc3ccccc3N)ccc2O[C@H]1CN(C)Cc1ccccc1	-7	-10
CN1C(=O)c2cc(NC(=O)c3ccccc3Cl)ccc2OC[C@H]2O[C@@H](CC(=O)Nc3ccc4c(c3)CCC4)CC[C@@H]21	-17	-15
C[C@@H]1CN([C@H](C)CO)C(=O)Cc2cc(NC(=O)Nc3cccc4ccccc34)ccc2O[C@H]1CN(C)S(C)(=O)=O	24	10
COc1cccc(-c2ccc3n(c2=O)C[C@H]2[C@H](CO)[C@@H](C(=O)N(C)C)[C@@H]3N2CC2CC2)c1	5	7
CCC(=O)Nc1ccc2c(c1)C(=O)N(C)C[C@@H](OC)[C@@H](C)CN(C(=O)c1cccnc1)[C@H](C)CO2	13	13
C[C@H]1CN([C@@H](C)CO)C(=O)c2cc(-c3ccncc3)cnc2O[C@H]1CN(C)C(=O)c1cccc(F)c1	13	8
COc1cccc(NC(=O)N2C[C@@H](O)COC[C@@H]3O[C@H](CC(=O)NC4CCCC4)CC[C@H]32)c1	15	8
CN(C)C(=O)C[C@@H]1C[C@H]2c3cc(NC(=O)C4CCC4)ccc3O[C@H]2[C@H](CO)O1	10	11
COc1ccc2c3c(n(C)c2c1)[C@H](CO)N(C(=O)C1CCOCC1)CC31CCN(C(=O)C2CCOCC2)CC1	7	-2
CC(C)NC(=O)N1C[C@@H]2[C@H](c3ccccc31)[C@H](CO)N2C(=O)c1ccncc1	2	10
CO[C@@H]1CN(C)C(=O)c2ccc(NC(C)=O)cc2OC[C@@H](C)N(Cc2ccccc2F)C[C@@H]1C	-24	-14
COCC(=O)N1[C@H](C#N)[C@H](c2ccc(C#CCC3CCCC3)cc2)[C@@H]1CO	-3	-6
CN1C(=O)c2cc(NC(=O)c3ccc(C(F)(F)F)cc3)ccc2OC[C@@H]2O[C@@H](CC(=O)NC3Cc4ccccc4C3)CC[C@H]21	?	.
Cc1ccc(S(=O)(=O)N(C)C[C@H]2Oc3c(NS(=O)(=O)c4cccs4)cccc3C(=O)N([C@@H](C)CO)C[C@@H]2C)cc1	1	10
O=C(N[C@H]1CC[C@H](CCNC(=O)C2CCC2)O[C@@H]1CO)c1ccncc1	-2	7
O=S(=O)(N[C@H]1CC[C@H](CCn2cc(C3(O)CCCC3)nn2)O[C@H]1CO)c1ccccc1	4	5
O=C(N[C@H]1CC[C@H](CCn2cc(-c3ccccn3)nn2)O[C@@H]1CO)c1ccc(F)cc1	-5	-1
C[C@H]1CN([C@@H](C)CO)C(=O)Cc2cc(NS(=O)(=O)c3ccc(Cl)cc3)ccc2O[C@H]1CN(C)Cc1ccc(C(=O)Nc2ccccc2N)cc1	14	-7
C[C@H](C(=O)N(C)C[C@@H]1OCc2ccccc2-c2ccccc2C(=O)N([C@@H](C)CO)C[C@@H]1C)c1ccccc1	9	3
CCS(=O)(=O)N1CC2(CN(C)[C@@H](CO)c3c2c2ccc(OC)cc2n3C)C1	9	-1

Complete entries, quoted from the list. Order of screens: Vaccinia inh | Vaccinia inh Venus
C[C@H]1CN([C@@H](C)CO)C(=O)c2cc(-c3ccncc3)cnc2O[C@H]1CN(C)C(=O)c1cccc(F)c1 as listed: 13 | 8
O=S(=O)(N[C@H]1CC[C@H](CCn2cc(C3(O)CCCC3)nn2)O[C@H]1CO)c1ccccc1 as listed: 4 | 5
Cc1ccc(S(=O)(=O)N(C)C[C@H]2Oc3c(NS(=O)(=O)c4cccs4)cccc3C(=O)N([C@@H](C)CO)C[C@@H]2C)cc1 as listed: 1 | 10
CO[C@@H]1CN(C)C(=O)c2ccc(NC(C)=O)cc2OC[C@@H](C)N(Cc2ccccc2F)C[C@@H]1C as listed: -24 | -14
O=C(N[C@H]1CC[C@H](CCn2cc(-c3ccccn3)nn2)O[C@@H]1CO)c1ccc(F)cc1 as listed: -5 | -1

Next structures follow:
SMILES	Vaccinia inh	Vaccinia inh Venus
C[C@H](CO)N1C[C@H](C)[C@H](CN(C)Cc2ccc3c(c2)OCO3)Oc2ccc(NS(=O)(=O)c3ccc(Cl)cc3)cc2CC1=O	-22	-12
CCCNC(=O)N1C[C@@H](C)[C@H](OC)CN(C)C(=O)c2ccc(NC(=O)CCC)cc2OC[C@H]1C	5	-3
C[C@@H]1CN([C@H](C)CO)C(=O)c2cc(NC(=O)Cn3cnnn3)ccc2O[C@H]1CN(C)Cc1ccc(C(F)(F)F)cc1	0	-8
O=C(Cc1ccncc1)NCC[C@H]1CC[C@H](NC(=O)C2CCOCC2)[C@H](CO)O1	9	6
CN1CCN(C(=O)C[C@H]2CC[C@H]3[C@@H](COC[C@H](O)CN3C(=O)C3CCCC3)O2)CC1	15	20
C[C@@H]1CN([C@H](C)CO)S(=O)(=O)c2ccc(-c3ccccc3)cc2O[C@H]1CN(C)Cc1cccc(F)c1	-20	-7
O=C(NCCN1CCCCC1)[C@H]1N[C@H]2c3ccc(-c4ccccc4)c(=O)n3C[C@H]2[C@@H]1CO	5	5
CCS(=O)(=O)N1[C@H](CO)[C@H](c2ccc(C3=CCCCC3)cc2)[C@@H]1C#N	3	-8
Cc1ccc(S(=O)(=O)N(C)C[C@H]2Oc3ccc(NC(=O)CCCCCC(=O)Nc4ccccc4N)cc3C(=O)N([C@H](C)CO)C[C@@H]2C)cc1	8	4
COC(=O)C[C@H]1C[C@H]2c3cc(NS(C)(=O)=O)ccc3O[C@H]2[C@@H](CO)O1	0	0
O=C(Nc1ccc(Cl)c(Cl)c1)N[C@@H]1CC[C@@H](CCn2cc(C3CC3)nn2)O[C@H]1CO	-3	-2
C[C@H](CO)N1C[C@H](C)[C@@H](CN(C)S(=O)(=O)c2ccc(F)cc2)OCCCC[C@H](C)Oc2ccc(NC(=O)c3ccncc3)cc2C1=O	-5	-15
Cc1cccc(S(=O)(=O)N2CCCCN3[C@H](CO)[C@@H](c4ccc(C#CC(C)C)cc4)[C@H]3C2)c1	-24	-19
CN1c2ccc(-c3ccccc3F)cc2[C@@H]2[C@@H](CCN2C(=O)NC2CCCCC2)[C@@H]1CO	?	.
COc1ccc(CN(C)C[C@H]2Oc3ccc(NS(=O)(=O)c4ccccc4)cc3C(=O)N([C@H](C)CO)C[C@@H]2C)cc1	7	6

Single values from the list:
O=C(Cc1ccncc1)NCC[C@H]1CC[C@H](NC(=O)C2CCOCC2)[C@H](CO)O1 @ Vaccinia inh: 9
C[C@H](CO)N1C[C@H](C)[C@H](CN(C)Cc2ccc3c(c2)OCO3)Oc2ccc(NS(=O)(=O)c3ccc(Cl)cc3)cc2CC1=O @ Vaccinia inh: -22
Cc1cccc(S(=O)(=O)N2CCCCN3[C@H](CO)[C@@H](c4ccc(C#CC(C)C)cc4)[C@H]3C2)c1 @ Vaccinia inh Venus: -19

More structures:
SMILES	Vaccinia inh	Vaccinia inh Venus
CO[C@H]1CN(C)C(=O)c2ccc(NC(C)=O)cc2OC[C@@H](C)N(C(=O)c2ccc(F)cc2)C[C@H]1C	-2	5
C/C=C/c1ccc([C@H]2[C@@H](C#N)N(C(=O)NC3CCCC3)[C@@H]2CO)cc1	-12	-10
Cc1noc(C)c1S(=O)(=O)Nc1ccc2c(c1)C(=O)N([C@H](C)CO)C[C@@H](C)[C@H](CN(C)Cc1ccc3c(c1)OCO3)OCCCC[C@H](C)O2	?	.
CN(C)CC(=O)N1[C@@H]2c3ccc(C4=CCCCC4)c(=O)n3C[C@H]1[C@H](CO)[C@H]2C(=O)NCC1CC1	17	9
CCC(=O)Nc1ccc2c(c1)C(=O)N(C)C[C@H](OC)[C@H](C)CN(Cc1ccccc1)[C@@H](C)CO2	-7	-1
CN1CCN(C(=O)C[C@@H]2CC[C@H]3[C@@H](COC[C@H](O)CN3CC3CCCC3)O2)CC1	-2	-6
CO[C@H]1CN(C)C(=O)c2ccc(NS(=O)(=O)CC(F)(F)F)cc2OC[C@H](C)N(Cc2nccs2)C[C@H]1C	9	13
CO[C@H]1CN(C)C(=O)c2ccc(NC(C)=O)cc2OC[C@@H](C)N(C(=O)c2ccncc2)C[C@@H]1C	7	12
Cc1ccc(S(=O)(=O)Nc2cccc3c2O[C@H](CN(C)C(=O)NC2CCCCC2)[C@@H](C)CN([C@@H](C)CO)C3=O)cc1	-11	-6
Cc1noc(C)c1NC(=O)Nc1cccc2c1O[C@@H](CN(C)S(C)(=O)=O)[C@@H](C)CN([C@H](C)CO)C2=O	21	9
C[C@@H]1CN([C@@H](C)CO)C(=O)c2cc(NC(=O)Nc3ccc(C(F)(F)F)cc3)ccc2O[C@@H]1CN(C)CC1CC1	?	.
COCc1cn(CC[C@H]2CC[C@H](NC(=O)Nc3ccc4c(c3)OCO4)[C@@H](CO)O2)nn1	10	12
CO[C@@H]1CN(C)C(=O)c2ccc(NC(=O)C3CCOCC3)cc2OC[C@H](C)N(C(C)=O)C[C@H]1C	12	13
CN(C)CC(=O)N1[C@@H]2c3ccc(-c4ccncc4)c(=O)n3C[C@H]1[C@H](CO)[C@H]2C(=O)NC1CCC1	0	-3
C[C@@H]1CCCCO[C@@H](CN(C)Cc2ccc(Cl)c(Cl)c2)[C@@H](C)CN([C@H](C)CO)C(=O)c2cc(NC(=O)C3CCCCC3)ccc2O1	-10	4
C[C@H](CO)N1C[C@H](C)[C@H](CN(C)C)Oc2ccc(NC(=O)Cc3ccccc3)cc2CC1=O	12	11
C[C@H]1CCCCO[C@@H](CN(C)C(=O)Nc2ccc(C(F)(F)F)cc2)[C@@H](C)CN([C@@H](C)CO)C(=O)c2cc(NC(=O)c3ccccc3)ccc2O1	-16	-7
COc1ccccc1-c1cnc2c(c1)C(=O)N([C@H](C)CO)C[C@H](C)[C@H](CN(C)C(C)=O)O2	30	12
Cc1ccccc1S(=O)(=O)N1CC(=O)N2[C@@H](CO)[C@@H](c3ccc(C#CCN(C)C)cc3)[C@@H]2C1	-9	-7
O=C(Cc1ccccn1)N1CC(=O)N2[C@H](CO)[C@@H](c3ccc(C#CC4CCCCC4)cc3)[C@H]2C1	-27	-20
O=C(Nc1ccc(F)cc1)N1C[C@H]2[C@@H](c3ccccc31)[C@H](CO)N2C(=O)c1ccccc1	-1	20
CCC(=O)N1C[C@H](O)COC[C@@H]2O[C@H](CC(=O)NCc3cc(F)cc(F)c3)CC[C@H]21	9	4
COc1ccc(CN(C)C[C@@H]2Oc3ccc(NC(=O)c4ccncc4)cc3C(=O)N([C@@H](C)CO)C[C@H]2C)cc1	4	0
O=S(=O)(N[C@@H]1CC[C@@H](CCn2cc(-c3cccc(F)c3)nn2)O[C@H]1CO)c1ccc(F)cc1	-13	-11
CCCNC(=O)N1[C@@H]2Cn3c(ccc(-c4cccc(OC)c4)c3=O)[C@H]1[C@@H](C(=O)NC1CCC1)[C@@H]2CO	-2	4
COC(=O)[C@@H]1[C@@H](CO)[C@@H]2Cn3c(ccc(-c4cccc(F)c4)c3=O)[C@@H]2N1CC1CCCC1	-35	-15
COc1cccc(-c2cnc3c(c2)C(=O)N([C@@H](C)CO)C[C@H](C)[C@@H](CN(C)C(C)=O)O3)c1	13	4
COc1cccc(S(=O)(=O)N(C)C[C@H]2OCc3cnnn3CCCC(=O)N([C@H](C)CO)C[C@H]2C)c1	15&12	5&5
Cc1ccccc1S(=O)(=O)N[C@H]1CC[C@@H](CCNS(=O)(=O)c2cccc(F)c2)O[C@@H]1CO	-9	2
C[C@@H]1CN([C@@H](C)CO)C(=O)c2cc(NS(=O)(=O)c3cn(C)cn3)ccc2O[C@@H](C)CCCCO[C@@H]1CN(C)CC1CCCCC1	4	-8
C[C@@H]1CCCCO[C@H](CN(C)C(=O)Nc2ccc3c(c2)OCO3)[C@@H](C)CN([C@H](C)CO)C(=O)c2cc(NC(=O)CCC(F)(F)F)ccc2O1	2	8
CO[C@@H]1CN(C)C(=O)c2ccc(NC(=O)Nc3c(C)noc3C)cc2OC[C@H](C)N(C)C[C@@H]1C	14	11
C[C@]12CCCC(=O)N1CCc1c2[nH]c2ccccc12	12	9
COc1ccc(S(=O)(=O)Nc2ccc3c(c2)C(=O)N([C@H](C)CO)C[C@H](C)[C@@H](CN(C)C(=O)C2CCCCC2)OCCCC[C@H](C)O3)cc1	?	.
O=C(c1cccc(F)c1)N1CC[C@@H]2[C@H]1c1cc(-c3ccccc3)ccc1N[C@@H]2CO	-11	0
